High-throughput results as filed in PubChem.
GLA inh pH 4.5 = blocks human alpha-galactosidase A at pH 4.5 | purified enzyme, 4-MU-alpha-Gal fluorescence, pH 4.5 | P06280 | 230,000 tested, under 10 active | activity change, negative = inhibition, % at 105 µM; inconclusive = small, poorly fitted or top-dose-only inhibition, or a rising curve; inactive = flat fitted curve, though single readings scatter; no compound was filed as active;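 further: 0% = full activity with enzyme and -100% = basal without enzyme; dose as in the result columns while the protocol names 77 µM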
Target sequence (P06280 whole entry, looked up): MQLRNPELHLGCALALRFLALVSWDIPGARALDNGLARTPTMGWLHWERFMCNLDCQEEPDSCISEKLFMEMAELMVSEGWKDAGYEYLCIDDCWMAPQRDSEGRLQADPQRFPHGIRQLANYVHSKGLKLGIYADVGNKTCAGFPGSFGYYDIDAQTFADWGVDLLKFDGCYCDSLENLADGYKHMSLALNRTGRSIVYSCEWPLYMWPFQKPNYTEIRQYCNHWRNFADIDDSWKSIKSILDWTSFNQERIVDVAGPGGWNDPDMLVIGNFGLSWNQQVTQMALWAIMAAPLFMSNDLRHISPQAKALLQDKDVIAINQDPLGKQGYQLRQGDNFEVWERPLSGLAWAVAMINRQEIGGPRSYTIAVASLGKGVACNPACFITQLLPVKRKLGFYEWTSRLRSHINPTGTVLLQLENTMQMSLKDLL
miR-21 FLuc = raises the signal of a miR-21 reporter; HeLa miR-21 FLuc reporter, luciferase, 48 h; Potency, µM (series often up to 38.3 µM), for the others: at the highest dose reporter change, positive = more light; 340,000 tested, under 10 active; active = well fitted rising curve with a large enough effect; inconclusive = small, poorly fitted or top-dose-only effect; inactive = no such curve, though single readings can be large or run the other way;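 further: % of control where 0% means no effect; miR-21 action dims this reporter so a rising signal means less miR-21 action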
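HeLa cells endogenously expressing miR-21, stably carrying CMV-driven firefly luciferase with a downstream miR-21 binding site, 2000 cells/well. Titrations up to approximately 40 uM, 48 hours; luciferase luminescence read.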
Rango dissoc inh = inhibition of RanGTP-driven Rango-importin beta dissociation. Potency, µM (doses to about 46.1 µM), for the others: at the top dose activity change, negative = inhibition. O95149+P62826. 340,000 tested, 0.071% active. Biochemical FRET Rango-importin beta, RanGTP-induced dissociation; active means falling FRET ratio curve, often poorly fitted, with flat reads before Ran was added; inconclusive means other falling curves, or compound fluorescence or quenching; inactive means flat or rising ratio curve;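 further: potency means the concentration at half of the fitted maximal effect; % of control where 0% means no effect; nearly all actives have a fitted effect of over 45% in size; -100% = wells without RanGTP and RCC1; the record marks most hits as doubtful in a second field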
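Compounds preincubate 5 min with complex of recombinant Rango and importin beta in PBS with 1 mM DTT. Ran (0.6 uM) loaded with 2 mM GTP plus 0.2 uM RCC1 starts dissociation; FRET is recorded 45 min later.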
Rango-impB inh = prevents formation of the Rango-importin beta complex | Q14974 | 340,000 tested, 0.031% active | Rango CFP/YFP FRET sensor + importin beta, 45 min | Potency, µM (doses to about 92.2 µM), without a hit: top-dose inhibition of complex formation; active = rising FRET ratio curve, often small or poorly fitted; inconclusive = mostly compound fluorescence or quenching in the first reads; inactive = flat curves in all reads;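 further: potency means the concentration at half of the fitted maximal effect; 0% = DMSO wells and 100% = buffer wells lacking importin beta; nearly all actives have a fitted effect of over 15% in size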
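Inhibition scored from the CFP 486 nm/YFP 530 nm FRET ratio 45 min after adding 0.125 microM importin beta to 50 nM Rango biosensor preincubated 5 min with compound (room temperature, PBS with DTT, Tween-20, BSA). No-importin wells as positive control.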
* marks the source's active call; other numbers are inactive results; ? = inconclusive; . = no result given.

SMILES	GLA inh pH 4.5	miR-21 FLuc	Rango dissoc inh	Rango-impB inh
Cc1ccc(CNC(=O)c2ccc(N3CCC4(CC3)CC(c3ccccc3)=NO4)c(NC(=O)c3ccco3)c2)cc1	.	-3%	14%	1.0%
O=S(=O)(Nc1cccc(Cl)c1)c1cccc(-n2cnnn2)c1	.	.	-5%	-4.2%
Cc1cc(=O)oc2cc3c(cc12)OCCN3	?	-22%	?	?
COCc1cc(/C=N\NC(=O)COc2ccccc2)ccc1OC	2	-12%	23%	-4.7%
COc1ccc(S(=O)(=O)N2CCN(C)CC2)cn1	.	1%	0%	-3.7%
CCC1(CC)NC(=S)NC1=S	.	.	18%	1.2%
Cc1ccc(CN2CN(S(=O)(=O)c3cccs3)c3nc4ccccc4nc32)cc1	-8	-39%	11%	-0.4%
Cc1ccc(S(=O)(=O)N(C)c2ccc(C(=O)N(C)Cc3nc4ccccc4c(=O)[nH]3)cc2)cc1	.	.	-20%	-0.5%
COn1c(=O)c(-c2ccc(Cl)cc2)[n+]([O-])c2ccccc21	0	-5%	3%	0.4%
COc1cccc(-c2nc(N3CCC(C)CC3)c3ccccc3n2)c1O	-5	1%	-6%	0.3%
CCC(=O)c1ccc(OCC(=O)c2ccc3c(c2)NC(=O)CO3)cc1	-12	-2%	-14%	-0.9%
O=C(c1cc2ccccc2cc1OCC(O)CN1CCCCC1)N1CCCCC1 (configuration not stated)	-3	-7%	33%	1.5%
Clc1ccc(OCc2nc3ccccc3[nH]2)cc1	0	-28%	-9%	1.1%
CC(C)CCN1C(N(C)C)=NC[C@@H]1C	.	.	?	0.6%
CCOC(=O)Nc1ccc2c(c1)N(C(=O)CN)c1ccccc1CC2	.	0%	11%	-1.1%
CC(=O)NCCNS(=O)(=O)c1ccc(C)c([N+](=O)[O-])c1	2	-2%	37%	-1.9%
CCCc1cc(=O)[nH]c(SCC(=O)NC2CCCCC2)n1	-13	0%	18%	-0.4%
COC(=O)/C(=C\Nc1ccc(Cl)cc1Cl)NC(=O)c1ccc(Cl)cc1Cl	0	-9%	-8%	-1.8%
O=C(Nc1nccs1)C1CCN(S(=O)(=O)c2cccnc2)CC1	-6	4%	15%	-1.9%
O=C(NC(=S)Nc1cc(Cl)ccc1O)c1cccc(Br)c1	-12	-8%	17%	-2.9%

Continued, starting with the last six of the part before.
SMILES	GLA inh pH 4.5	miR-21 FLuc	Rango dissoc inh	Rango-impB inh
CCOC(=O)Nc1ccc2c(c1)N(C(=O)CN)c1ccccc1CC2	.	0%	11%	-1.1%
CC(=O)NCCNS(=O)(=O)c1ccc(C)c([N+](=O)[O-])c1	2	-2%	37%	-1.9%
CCCc1cc(=O)[nH]c(SCC(=O)NC2CCCCC2)n1	-13	0%	18%	-0.4%
COC(=O)/C(=C\Nc1ccc(Cl)cc1Cl)NC(=O)c1ccc(Cl)cc1Cl	0	-9%	-8%	-1.8%
O=C(Nc1nccs1)C1CCN(S(=O)(=O)c2cccnc2)CC1	-6	4%	15%	-1.9%
O=C(NC(=S)Nc1cc(Cl)ccc1O)c1cccc(Br)c1	-12	-8%	17%	-2.9%
CC(C)OP(=O)(OC(C)C)C(C)NC(=O)Cc1ccccc1 (configuration not stated)	-6	0%	-4%	0.3%
Cc1cc(OC(=O)c2ccccc2)c([N+](=O)[O-])c(=O)[nH]1	-2	6%	0%	5.9%
CSC1=NSC2=NC(=O)/C(=C/c3coc4ccccc4c3=O)C(=N)N12	-7	-34%	?	?
CCOC(=O)c1sc(NC(=O)c2cccc(S(=O)(=O)N3CCc4ccccc43)c2)c(C#N)c1C	-3	8%	0%	-12%
CCn1c(C)nc2cc(C(=O)NNC(=S)Nc3ccccc3Cl)ccc21	0	-85%	9%	0.9%
COC(=O)/C(C#N)=C/c1c(N2CCCCCC2)nc2ccccn2c1=O	.	-1%	-30%	?
Cc1noc(C(=O)Nc2ccc(F)c(Cl)c2)c1Cl	.	-31%	-3%	-2.6%
COc1ccc(NC(C)=O)cc1S(=O)(=O)Nc1ccccc1C(=O)N1CCCC1	1	2%	12%	-1.2%
C=CCNc1nc2c(c(=O)[nH]c(=O)n2C)n1CCOc1ccccc1	.	0%	-2%	3.7%
O=C(Nc1ccccc1)Nc1nnc(Cc2ccc([N+](=O)[O-])cc2)s1	-1	2%	-4%	1.5%
COc1cc(/C=N\n2nnnc2N)ccc1OCc1ccc(F)cc1	7	-51%	10%	0.1%
Cc1cc(C)c(C#N)c(SCC(=O)N(CC(C)C)C2CCS(=O)(=O)C2)n1 (configuration not stated)	.	.	-8%	?
O=C(O)CCn1cc(/C=C2/NC(=S)N(c3ccccc3)C2=O)c(-c2ccccc2)n1	-6	4%	?	?
CS(=O)(=O)N(CC(=O)N1CCOCC1)c1cccc(Cl)c1Cl	.	0%	-2%	5.0%
COc1ccc(NC(=O)C(Cc2cc(C)cc(C)c2)C(C)C(=O)O)cc1 (configuration not stated)	.	0%	0%	12%
Cc1cc(C(=O)Nc2ccon2)c(C)o1	-1	-12%	-9%	-1.1%
O=C(O)c1cc(NC(=O)c2cccc(F)c2)cc(NC(=O)c2cccc(F)c2)c1	.	3%	10%	0.1%
COc1ccc(-c2ccccc2)c2oc(-c3ccco3)cc(=O)c12	.	.	-7%	1.0%
CCOC(=O)C1CCCN(C(=S)Nc2ccc(F)cc2)C1 (configuration not stated)	9	-2%	-7%	-0.6%
COc1cc(NC(=O)Cn2c(-c3cncs3)nc3ccccc32)cc(OC)c1OC	-1	-1%	7%	-1.2%
Brc1c(OCCOCCn2cncn2)ccc2ccccc12	0	-55%	0%	0.4%
O=C(/C=C/c1ccccc1[N+](=O)[O-])Nc1ccc(S(=O)(=O)Nc2ncccn2)cc1	.	-2%	4%	-0.6%
COCC1CCN(C(=O)c2cc(COc3ccc(F)cc3F)on2)C1 (configuration not stated)	.	-13%	-6%	-0.1%
CCOC(=O)CC(N)c1cccc([N+](=O)[O-])c1 (configuration not stated)	3	-1%	-10%	-3.4%
CC(=O)Nc1ccc(S(=O)(=O)N[C@@H](C)C(=O)OCC(=O)Nc2ccc3c(c2)OCCO3)cc1	.	.	1%	-2.4%
Cc1cccc(NC(=O)CCOc2ccccc2)c1C	.	-17%	12%	-4.5%
N=C(N)c1ccc(N=Nc2c(O)ccc3c2[nH]c2ccccc23)cc1	.	.	-3%	58µM*
COc1ccccc1N(CN1CCCC1=O)C(=O)c1ccccc1F	2	-3%	-21%	-0.8%
Cc1ccc(C)c(-n2c(SCC(=O)Nc3nonc3C)nnc2-c2ccoc2C)c1	-4	-1%	-10%	-4.1%
Cc1onc(-c2c(F)cccc2Cl)c1C(=O)OCC(=O)N1C(C)CCCC1C (configuration not stated)	.	.	-18%	-3.5%
Cc1ccc(NC(=S)NN2CCN(C)CC2)c(C)c1	-1	-1%	0%	-2.1%
COCCn1c(N)c(N(Cc2ccccc2)C(=O)Cc2ccccc2F)c(=O)[nH]c1=O	13	-2%	-4%	1.6%
Cc1ccc(OCC(=O)N(Cc2ccc(N(C)C)cc2)C2CCS(=O)(=O)C2)cc1 (configuration not stated)	-4	-8%	10%	4.8%
CCn1c(Sc2ccc([N+](=O)[O-])cn2)nnc1-c1ccco1	0	?	4%	-0.5%
CC(C)C(C(=O)N1CCN(C(=O)OC(C)(C)C)CC1)n1cc(-c2cn([C@@H](C)C(=O)N3CCN(C(=O)OC(C)(C)C)CC3)nn2)nn1 (some centres not stated)	-1	2%	.	.
Cc1cc(C)cc(OCC(=O)Nc2cccc(C(=O)O)c2)c1	-10	-38%	-5%	4.5%
COc1cccc(/C=N/NC(=O)COc2cccc3cccnc23)c1O	-2	20%	?	-1.7%
CCN(CC)C(=O)CSc1nnnn1-c1ccc(F)c(Cl)c1	-8	-10%	5%	3.9%
CN1CCN(CC(=O)N(C)c2nc(-c3ccccc3)cs2)CC1	2	-47%	5%	-0.2%
CC(C)CC(=O)OCC(=O)Nc1ccccc1Sc1ccccc1	-4	-4%	-15%	5.0%
CC(=O)NC(CC(=O)OCC(=O)c1cc(C)ccc1C)c1ccccc1 (configuration not stated)	.	.	17%	6.9%
CSc1nnc(Cn2c(=O)sc3ccccc32)n1-c1cccc(Cl)c1	-2	-1%	5%	-3.0%
Cc1ccc(C)c(NC(=O)COc2coc(CN3CCc4ccccc4C3)cc2=O)c1	.	.	-4%	1.7%
Cc1ccc(N2CC(C(=O)Nc3ccccc3OC(F)F)CC2=O)cc1 (configuration not stated)	.	.	2%	7.5%
Cc1cc(NC(=O)CSc2nc(C3CC3)nc3sc4c(c23)CCC(C)C4)no1 (configuration not stated)	.	.	0%	0.9%
Cc1c(C(=O)NCc2cccnc2)oc2ccc(S(=O)(=O)N3CCCCCC3)cc12	-18	13%	7%	-0.9%
COC(=O)c1c(NC(=O)CC2Sc3ccc(C(F)(F)F)cc3NC2=O)sc(C)c1C (configuration not stated)	-5	-5%	11%	3.5%
CCN1CCN(S(=O)(=O)c2ccc(Cl)c(C(=O)N(C)Cc3ccc(C(C)(C)C)cc3)c2)CC1	.	.	9%	?
CCN(c1ccccc1)S(=O)(=O)c1cccc(C(=O)N(C)CC(=O)Nc2ccc(F)c(F)c2F)c1	.	.	-3%	0.8%
OC1CC(c2ccco2)NC2(CCCCC2)C1 (configuration not stated)	5	-1%	11%	0.1%
CC(C)(C)OC(=O)N1CCCN(C(=O)c2ccc(Cl)cc2)CC1	.	-1%	-5%	0.5%
N#Cc1ccc(NC(=O)COC(=O)C2=COCCO2)cc1	-5	-3%	-2%	-0.8%
CC(C)CC1Nc2ncnc(N3CCOCC3)c2N(Cc2ccc(Cl)cc2)C1=O (configuration not stated)	.	.	1%	1.2%
O=C(CN1C(=O)NC2(CCCC2)C1=O)NNC(=O)c1ccc(F)cc1	.	.	0%	-2.2%
CN(C)C(CNC(=O)c1ccc(S(=O)(=O)Nc2ccccc2F)cc1)c1ccco1 (configuration not stated)	.	.	-22%	?
N#Cc1ccsc1NC(=O)CN1CCN(S(=O)(=O)c2ccc3ccccc3c2)CC1	5	-11%	?	-1.1%
Cc1ccc(OCCn2cc(/C=C3\C(=O)NN(c4ccccc4)C3=O)c3ccccc32)cc1	-14	0%	-4%	-2.1%
CC(=O)N/C(=C/c1ccc([N+](=O)[O-])cc1)C(=O)O	3	2%	1%	1.2%
COc1cccc(CNCCc2c[nH]c3ccccc23)c1OCc1ccccc1F	2	?	-16%	7.7%
O=C(CN1C(=O)NC2(CCCCCCC2)C1=O)NC1CCCc2ccccc21 (configuration not stated)	8	-4%	-19%	-0.2%

A draw from above in order of number of heavy atoms, highest first.
SMILES	GLA inh pH 4.5	miR-21 FLuc	Rango dissoc inh	Rango-impB inh
CC(=O)Nc1ccc(S(=O)(=O)N[C@@H](C)C(=O)OCC(=O)Nc2ccc3c(c2)OCCO3)cc1	.	.	1%	-2.4%
O=C(/C=C/c1ccccc1[N+](=O)[O-])Nc1ccc(S(=O)(=O)Nc2ncccn2)cc1	.	-2%	4%	-0.6%
OC1CC(c2ccco2)NC2(CCCCC2)C1 (configuration not stated)	5	-1%	11%	0.1%

Next compounds
SMILES	GLA inh pH 4.5	miR-21 FLuc	Rango dissoc inh	Rango-impB inh
CCOc1ccc(N2CC(C(=O)Nc3nnc(Cc4ccccc4)s3)CC2=O)cc1 (configuration not stated)	.	0%	-5%	-2.1%
CC(C)(C)NC(=O)CSc1nnc(CN2CCCCCC2=O)n1-c1ccccn1	0	-3%	14%	0.2%
COc1ccc2nc(SCC(=O)Nc3ccc(S(=O)(=O)Nc4nccc(C)n4)cc3)[nH]c2c1	6	-11%	9%	-1.9%
COCCN(Cc1cc2cc(C)ccc2n2nnnc12)C(=S)Nc1ccccc1C	13	0%	-15%	3.2%
CCOc1cc(/C=C2\C(=N)N3N=CSC3=NC2=O)ccc1OS(=O)(=O)c1ccccc1	.	3%	-18%	?
c1ccc(Nc2ncnc3sc4c(c23)CCC4)cc1	1	-8%	-15%	-3.3%

Limited to miR-21 FLuc and Rango dissoc inh, for 3 of the compounds above:
molecule,miR-21 FLuc,Rango dissoc inh
COCCN(Cc1cc2cc(C)ccc2n2nnnc12)C(=S)Nc1ccccc1C,0%,-15%
c1ccc(Nc2ncnc3sc4c(c23)CCC4)cc1,-8%,-15%
CC(C)(C)NC(=O)CSc1nnc(CN2CCCCCC2=O)n1-c1ccccn1,-3%,14%

The list is partial (hit frequency here may not be typical).
